From PubChem
Beta apoptosis – inhibitors of cytokine-induced beta cell apoptosis, primary screen, luminescence | INS-1E cytokine-induced death, ATP luminescence, 48 h; percent of positive-control rescue, neutral wells zero | protection from apoptosis, % (no concentration beside the values) | 0.8% of 300,000 active | AID 435005, 2010;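 active = all replicates at 75% or more, or half of them and the mean; inconclusive = half reach 75% but not the mean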;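 also: 0% = cytokine-treated negative control wells and 100% = positive control rescue; higher means more ATP so stronger rescue from cytokine killing; wells of about 40 µL received 100 nL stock; the first replicate is given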
Bfl-1 A1 inh – caspase 3/7 activation in MEF A1-2A-BIM cells, primary screen, A1 inhibitor project, cell-based, luminescence, HTS; 0.066% of 330,000 active; Caspase-Glo 3/7 luminescence, 3 h; percent of clofoctol response, vehicle zero; caspase activation, % (no concentration beside the values);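 active = over half of replicate activation scores above 10%, or exactly half above 10 with the replicate mean above 10; inconclusive = replicate mean below 10 yet half the replicates above 10; inactive = over half of replicates below 10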;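 also: wells of about 30 µL received 50 nL stock; many hits fall short of the cut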
RanGTP-Imp inh – inhibitors of RanGTP-importin-beta interaction, primary screen, biochemical, FRET, CFP-Ran, YFP-importin-beta, homogeneous; cell-free CFP-Ran/YFP-importin-beta FRET ratio; inhibition, % (test concentration not listed); 1.1% of 300,000 active;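 active = most replicates above 15%; inconclusive = exactly half above 15%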;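 also: 0% = DMSO wells and 100% = Ran loaded with GDP instead of GTP; wells of about 40 µL received 100 nL stock; the first replicate is given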
AF4-AF9 inh – inhibitors of AF4 peptide binding to AF9, primary screen, biochemical, AlphaScreen, biotin-AF4 peptide, FLAG-AF9, single point. inhibition, % at 10 µM. 0.47% of 350,000 active;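 active = every replicate reaching a set inhibition limit, whatever the replicate mean, cut at about 25% in these data; inconclusive = mean inhibition reaches that limit but some replicates miss it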;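 also: 0% = plate neutral control median and 100% = total signal loss; the record names both 10 and 1 µM as test concentration; the first replicate is given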
Target sequence (P42568 whole entry, looked up): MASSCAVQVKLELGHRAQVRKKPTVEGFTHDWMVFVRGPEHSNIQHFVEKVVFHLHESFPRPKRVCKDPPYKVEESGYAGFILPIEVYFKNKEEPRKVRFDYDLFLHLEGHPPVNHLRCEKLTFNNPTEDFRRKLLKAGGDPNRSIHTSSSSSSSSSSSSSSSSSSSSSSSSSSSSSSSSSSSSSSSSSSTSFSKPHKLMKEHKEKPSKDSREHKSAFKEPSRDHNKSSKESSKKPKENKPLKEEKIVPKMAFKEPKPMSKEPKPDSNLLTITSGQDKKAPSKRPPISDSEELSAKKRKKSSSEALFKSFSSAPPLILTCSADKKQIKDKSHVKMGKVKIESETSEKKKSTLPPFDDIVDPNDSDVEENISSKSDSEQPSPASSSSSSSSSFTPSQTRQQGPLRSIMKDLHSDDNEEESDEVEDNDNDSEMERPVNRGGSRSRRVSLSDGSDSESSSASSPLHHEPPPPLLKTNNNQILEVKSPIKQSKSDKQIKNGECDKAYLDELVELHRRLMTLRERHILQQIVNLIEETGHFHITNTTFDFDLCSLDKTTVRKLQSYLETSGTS
Calb FLC – C. albicans growth inhibition with fluconazole, primary screen, CaCi-2 strain, Alamar Blue fluorescence; C. albicans CaCi-2 (fluconazole-resistant clinical isolate) + fluconazole, 48 h; growth inhibition, % (test concentration not listed); 0.57% of 300,000 active; AID 1979, 2009;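 active = most replicates above 75%; inconclusive = exactly half above 75%; inactive = most below 75%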;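 also: all wells also contain fluconazole at 8 µg/ml as a sub-toxic cotreatment; 0% = median of DMSO wells and 100% = median of geldanamycin control wells; wells of about 8 µL received 7.5 nL stock; the first replicate is given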
Vif TR-FRET – inhibitors of Vif binding to APOBEC3G peptide, primary screen, biochemical, TR-FRET, GST-Vif 1-94, biotin-A3G peptide, dose response retest (AID 1117319); one-dose inhibition, %; IC50 in µM for titrated hits; 0.57% of 260,000 active; TR-FRET GST-Vif / biotin-A3G peptide binding; higher % means a stronger effect; test concentration not given here; strong numbers were not always called active;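 active = above the screen mean plus three standard deviations and confirmed in dose response; inconclusive = results disagree or hit not tested in dose response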;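 also: Vif residues 1-94 fused to GST binding biotinylated APOBEC3G peptide 110-148; 0% = full assay without inhibitor and 100% = GST in place of GST-Vif; retest series ran down from 100 µM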
Ecoli rRNA inh – reduced GFP signal of wild-type E. coli, primary screen, bacterial rRNA inhibitor project, GFP/RFP fluorescence, OD600, single point; E. coli WT GFP vs humanized-ribosome RFP mutants, 24 h; stronger effect = lower value; DMSO median 0, no signal -100; GFP signal change (wild-type ribosome), % (concentration not given with the values); 1.6% of 350,000 active; AID 720706, 2013;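 active = significant combined selectivity score with lowered wild-type GFP, culture density cut under 30%, mutant RFP and density less affected; inactive = any of these conditions unmet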; also: one replicate is shown; some compounds called inactive have numbers as strong as hits
T cruzi repl – inhibitors of intracellular T. cruzi growth, primary screen, luminescence, NIH3T3 host cells; T. cruzi beta-gal in NIH3T3, 90 h; inhibition, % (no concentration beside the values); 1.4% of 300,000 active; AID 1885, 2009;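 active = mean inhibition across valid replicates above about 55%, limit read from the data; inconclusive = mean below that limit but half or more replicates reach it; inactive = mean below it, under half of replicates reach it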;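 also: signal also drops with host cell toxicity which is not excluded here; 0% = plate median of DMSO wells and 100% = zero luminescence signal; higher percent means less beta-gal luminescence so fewer parasites; stock transfer was 50 nL into about 50 µL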
Ecoli rRNA inh OD600 – further read-out of Ecoli rRNA inh, marked with its call; OD600 change, %; measured here: OD600 growth;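 optical density of the mix in the first replicate; 0 = DMSO median and -100 = no signal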
Ecoli rRNA inh RFP – recorded beside Ecoli rRNA inh, whose call it bears; RFP signal change, %; measured here: RFP humanized mutant strains;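 first replicate; 0 = DMSO median and -100 = no signal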
An asterisk follows results filed as active; ? = inconclusive; / = not tested or not shown; & = joins results of further samples. The list is partial (hit frequency here may not be typical).

SMILES | Beta apoptosis | Bfl-1 A1 inh | RanGTP-Imp inh | AF4-AF9 inh | Calb FLC | Vif TR-FRET | Ecoli rRNA inh | Ecoli rRNA inh OD600 | Ecoli rRNA inh RFP | T cruzi repl
COc1ccc(/C=C2/N=C(SCC(=O)Nc3cc(C)on3)N(c3ccccc3)C2=O)cc1 | -2 | 0.8 | / | 0.9 | / | -5% | 12 | 22 | 4.1 | /
c1nnc(-c2ccc3c(c2)OCO3)o1 | 0 | -0.6 | ? | 0.7 | 5 | -3% | 9 | 1 | 0.4 | -8
COc1cc(NC(=O)CN(c2ccc(C)cc2)S(=O)(=O)c2c(C)nn(C)c2C)cc(OC)c1 | 7 | 0.4 | -0.5 | / | -5 | -4%&-4% | / | / | / | -7
O=C(CCc1nnc2ccc(N3CCC4(CC3)OCCO4)nn12)NCc1ccc(F)cc1 | -3 | -0.3 | -0.6 | -3.6 | -5 | 9% | 0 | 0 | -4.7 | -11
CCCCNC(=O)N1CCN(c2ncccn2)CC1 | -1 | -0.2 | ? | -0.4 | -4 | / | -2 | 0 | 1.2 | -16
O=C1CS/C(=C\S(=O)(=O)c2ccc(Cl)cc2)N1 | 1 | -0.4 | -2.6 | / | -6 | ? | / | / | / | -4
Cc1cc(C(=O)Nc2ccccc2C(=O)O)ccc1NC(=O)COc1cccc([N+](=O)[O-])c1 | -5 | 0.8 | 1.0 | 2.1 | 60 | 9% | 15 | 14 | 3.1 | 7
O=C(Nc1ncc(Cc2ccc(SC(F)F)cc2)s1)c1ccccc1 | 9 | -0.6 | 3.8 | / | -13 | ? | / | / | / | -31
Cc1cccc(OCC(=O)N2CCCc3ccccc32)c1 | 0 | 0.9 | / | -1.9 | -5 | / | -1 | 3 | 2.7 | /
CCOc1ccc(NCc2cccn2-c2nnc(N3CCC(C(=O)NCCCN4CCCCC4CC)CC3)s2)cc1 (centres undefined) | 8 | -0.8 | -4.0 | 38* | -16 | / | 3 | -4 | 8.5 | 38
Cc1ccnc(NS(=O)(=O)c2cccc3nsnc23)c1 | -2 | 1.1 | -3.1 | / | -2 | -2% | / | / | / | -17
S=c1[nH]nc(-c2ccc3c(c2)OCO3)n1-c1ccccc1 | 0 | -0.2 | 5.2 | / | 24 | / | / | / | / | 6
COc1ccccc1C(=O)Nn1c(-c2cccs2)nc2ccccc2c1=O | -11 | 0.5 | -1.0 | 2.2 | -50 | / | / | / | / | 21
Cc1ccc2cc(C)c(NCCO)nc2c1 | -4 | 0.7 | -1.6 | / | -8 | -7% | / | / | / | 2
CCCCN(C)CCNC(=O)CSCc1ccc(C)cc1 | -1 | -0.5 | 1.4 | -6.7 | -1 | 2% | 6 | 13 | 5.0 | 31
O=C(O)CCC(=O)Nc1nc2ccc([N+](=O)[O-])cc2s1 | -3 | 1.6 | 2.7 | -2.3 | 16 | 9% | 0 | -2 | -2.3 | -9
COc1ccc(C(C(=O)NC(C)(C)C)N(CCC(C)C)C(=O)CCC(=O)Nc2cc(C)on2)cc1 (centres undefined) | -5 | -0.4 | ? | 0.4 | 6 | / | 3 | -2 | -1.7 | 20
COc1cccc(C(=O)NCCC(=O)NCc2cc(=O)n(C)c(=O)n2C)c1 | 3 | 0.4 | 3.0 | -0.7 | -1 | -2% | 24 | 22 | 3.6 | -11
O=C1NC(N2CCOCC2)=N/C1=C/c1ccc2c(c1)OCO2 | 6 | -0.5 | -1.0 | -0.7 | 2 | 6% | -2 | -2 | -3.7 | -12
CSCCC1NC(=O)N(CC(=O)Nc2cccc3ccccc23)C1=O (centres undefined) | -4 | 0.3 | -3.6 | / | 1 | 6% | / | / | / | -12
CCOC(=O)/C(=N\Nc1ccccc1[N+](=O)[O-])c1csc(Nc2ccccc2)n1 | 32 | -0.5 | -0.2 | 7.2 | -5 | 7% | 8 | 15 | -0.9 | 28
CCCNC(=O)c1nn2c(C(F)(F)F)cc(-c3ccccc3)nc2c1Cl | 0 | -0.1 | -2.2 | 0.6 | 11 | / | 9 | 11 | 1.7 | 9
C#Cc1ccc([C@H]2C=C(C(=O)N3CCN(Cc4ccc5c(c4)OCO5)CC3)O[C@@H](OCc3ccc(CO)cc3)C2)cc1 | -1 | -0.3 | 3.7 | -1.5&7.0 | 8 | 3% | 5 | 6 | -0.7 | 37
Cc1ccc(Cl)cc1NC(=S)N(CCN(C)C)C(C)c1ccccn1 (centres undefined) | -15 | -0.1 | 3.1 | 11 | 1 | 5% | -2 | 0 | 1.9 | 1
O=C(O)C1CC(=O)N(c2ccc3c(c2)OCCO3)C1 (centres undefined) | -7 | -0.3 | 1.1 | / | 5 | -1% | / | / | / | -6
Cc1cccc2sc(NC(=O)C3CCCO3)nc12 (centres undefined) | 8 | -0.6 | 2.8 | / | 11 | 24% | -14 | -9 | -3.6 | 14
COC(=O)c1ccccc1NC(=O)c1ccccc1N(C)S(C)(=O)=O | -11 | 0.3 | -1.0 | / | -1 | 0% | / | / | / | /
Cn1nc(C(F)(F)F)c2cc(C(=O)Nc3ccc(F)c(Cl)c3)sc21 | 15 | -0.6 | -1.3 | -4.0 | 2 | 3% | -30* | -19* | -4.8* | 29
COCCn1c(SCC(=O)Nc2ccc(N3CCOCC3)cc2)nc2ccccc21 | -1 | 0.3 | -17 | / | 1 | 8% | / | / | / | -6
CCOc1ccccc1CNC(=O)CCN1C(=O)COc2ccccc21 | -2 | -0.7 | 5.4 | / | 7 | -4% | / | / | / | -2
Cc1ccc(NC(=O)COC(=O)C2CSC3(C)CCC(=O)N23)c(C)c1 (centres undefined) | -9 | -0.4 | / | -1.1 | / | -1% | 19 | 21 | 4.2 | /
Cc1ccc(-n2nc3c(c2NC(=O)c2ccccc2Br)CS(=O)C3)cc1 (centres undefined) | / | 1.3 | -1.4 | -12 | -3 | 1% | 4 | 6 | 1.6 | 2
CN(CC(=O)Nc1ccc(Cl)c(C(F)(F)F)c1)C(=O)CCN1C(=O)C2CCCCC2C1=O (centres undefined) | -4 | -0.2 | ? | -2.4 | -1 | -8% | -22 | -44 | -3.6 | 1
CCCCc1nc2cc(C(=O)NCc3ccccn3)ccc2o1 | 5 | -0.7 | 1.5 | -0.9 | 5 | / | 0 | -10 | -1.8 | -19
CC(c1nnc(SCC(=O)N2CCc3ccccc32)n1-c1ccc(Cl)cc1)N(C)C (centres undefined) | -8 | 0.3 | 4.6 | / | 13 | -2% | / | / | / | 7
C/C(=N/NC(=O)C1CC1(c1ccccc1)c1ccccc1)c1cccs1 (centres undefined) | 9 | 1.5 | 1.1 | -3.1 | 6 | -6% | -3 | 0 | -1.9 | 16
CCOC(=S)SCC(=O)N1CCc2ccccc2C1C1C(=O)CCCC1=O (centres undefined) | -2 | 0.1 | 4.4 | -0.9 | ? | 13% | 6 | 8 | -3.4 | 4
Cc1nn(C(C)C(=O)N2CCN(c3ccccn3)CC2)c(=O)c2cc3occc3n12 (centres undefined) | 2 | 1.5 | -1.5 | / | -4 | 13% | / | / | / | -1
COc1ccc(CC(=O)NNS(=O)(=O)c2ccc3ccccc3c2)cc1OC | 1 | 0.1 | 2.6 | / | 7 | / | / | / | / | 9
O=C(Cc1ccc(Cl)cc1)Nc1ccc(-c2nnc(-c3ccco3)o2)cc1 | 6 | 0.6 | -1.1 | / | -9 | 1% | / | / | / | 8
CC(C)C[C@H](NC(=O)c1nc[nH]c1C(=O)NC1CCN(C(=O)OC(C)(C)C)CC1)C(=O)OCc1ccccc1 | -9 | 0.2 | 1.5 | 8.7 | 6 | -1% | 9 | -5 | 2.0 | 15
O=C(OCn1cncn1)c1ccc(Cl)cc1Cl | -5 | -0.4 | 2.7 | / | 0 | 70% | / | / | / | -2
CCOC(=O)C1CCCN(CCC(=O)Nc2ccc(C)cc2)C1 (centres undefined) | -5 | 0.2 | -1.2 | / | 6 | 2% | / | / | / | -3
COC(=O)c1cc2nc(-c3ccccc3)cc(C(F)(F)F)n2n1 | -5 | 0.3 | 0.3 | / | -7 | -1% | / | / | / | -1
CCOc1ccc(OCC)c(N=c2oc3c(C)ncc(CO)c3cc2C(N)=O)c1 | -1 | 0.9 | -2.0 | / | 7 | 9% | / | / | / | -8
CCC1C(=O)C(CC)C(c2ccccc2)NC1c1ccccc1 (centres undefined) | 8 | 0.9 | -1.9 | -1.3 | 18 | / | -10 | -25 | -3.4 | 6
CC(=O)O[C@H]1CC[C@@]2(C)C(=CC[C@H]3[C@@H]4CC[C@H](C5(C)OCCO5)[C@@]4(C)CC[C@@H]32)C1 | -5 | 0.6 | ? | / | 6 | / | / | / | / | 5
Cc1cc(=O)[nH]c(SCCOc2cccc(C(F)(F)F)c2)n1 | 6 | 0.1 | 7.1 | -1.9 | ? | -4% | 5 | 5 | 4.5 | -1
O=C(Nc1ccc(Oc2cccnc2)cc1)C1CCN(Cc2ccccc2F)CC1 | / | / | 1.7 | 1.3 | -10 | / | 0 | -7 | -1.0 | 23
CSc1ccc(Cl)c(C(=O)NCCOc2cc(C(C)C)ccc2C)c1 | 0 | -1.1 | 1.8 | / | -24 | 6% | / | / | / | 10
(continued)
SMILES | Beta apoptosis | Bfl-1 A1 inh | RanGTP-Imp inh | AF4-AF9 inh | Calb FLC | Vif TR-FRET | Ecoli rRNA inh | Ecoli rRNA inh OD600 | Ecoli rRNA inh RFP | T cruzi repl
CCN(CC)CCCn1c(=S)[nH]c2ncccc2c1=O | 1 | 0.5 | 4.1 | / | -1 | -2% | / | / | / | 1
Cc1ccc(S(=O)(=O)N2CCOCC2)cc1NC(=O)COC(=O)C1COc2ccccc2O1 (centres undefined) | 3 | -0.1 | -2.1 | -3.2 | 2 | / | 20 | 5 | -0.5 | -10
CC(C)(C)CC(C)(C)NC(=S)Nc1ccc(S(=O)(=O)N2CCOCC2)cc1 | 8 | -0.1 | 2.5 | / | 26 | 1% | / | / | / | 1
O=C(Nc1cccnc1)C1CCCN(S(=O)(=O)c2cccc3nsnc23)C1 (centres undefined) | -5 | 1.8 | ? | / | 0 | 7% | / | / | / | -1
COc1cccc(OCc2cc(/C=N/NC(=O)c3ccn[nH]3)ccc2OC)c1 | 2 | -0.3 | 3.7 | / | 3 | 1% | / | / | / | -2

An excerpt of these results, tab-delimited:
molecule	Beta apoptosis	Bfl-1 A1 inh	RanGTP-Imp inh	AF4-AF9 inh	Calb FLC	Vif TR-FRET	Ecoli rRNA inh	Ecoli rRNA inh OD600	Ecoli rRNA inh RFP	T cruzi repl
Cc1ccnc(NS(=O)(=O)c2cccc3nsnc23)c1	-2	1.1	-3.1	/	-2	-2%	/	/	/	-17
S=c1[nH]nc(-c2ccc3c(c2)OCO3)n1-c1ccccc1	0	-0.2	5.2	/	24	/	/	/	/	6
